Screening data as filed in PubChem BioAssay.
YjeE inh = inhibitors of E. coli YjeE (TsaE); P0AF67; purified YjeE, fluorescence polarisation of a bound ADP probe; Potency, µM; 71,000 tested, 0.05% active; AID 605; active = well fitted falling curve; inconclusive = weaker or top-dose-only fall, or a rising curve; inactive = flat or poorly fitted curve;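 further: top concentration of the series not given in the record; excess ADP was the control for the full effect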
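Purified YjeE (10 uM) with BODIPY Texas Red-labeled ADP probe (2 uM); compounds pin-transferred, 15 min at room temperature. Binding inhibition read as decreased fluorescence polarization; ADP titration as control.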
PK Bst = pyruvate kinase (B. stearothermophilus) modulation; partly purified Bacillus stearothermophilus pyruvate kinase, luminescence ATP production; ribose 5-phosphate activator present at AC10; Potency, µM; AID 361; 51,000 tested, 1.2% active; in the data active means potency below about 11 µM; inconclusive means mostly about 12 µM to 25 µM; inactive means weaker than that;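 the screen sought inhibitors and activators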;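 further: potency means the concentration at half of the fitted maximal effect; scaled between full activation by ribose 5 phosphate and full inhibition by luteolin; about four in five hits inhibit and the cells do not say which; series up to 57 µM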
Active calls of the source: *; i = inactive; ? = inconclusive; . = no result given. Only part of the results is shown. The share of hits here may be higher or lower than overall.

Preview, 4 compounds:
SMILES	YjeE inh	PK Bst
CCCOc1ccc(/C(O)=C2/C(=O)C(=O)N(CCN3CCOCC3)C2c2ccccc2)cc1 (centres undefined)	.	>26
COCCn1c(=O)cnc2cnc(N3CCN(C)CC3)nc21	i	.
CC(O)c1nc2ccccc2n1Cc1nnc(-c2ccc(Cl)cc2)o1 (centres undefined)	i	2.5*
CCOc1ccc2[nH]c(C)c(CN3CCOCC3)c(=O)c2c1	i	.

This part in full, previewed entries included:
SMILES	YjeE inh	PK Bst
CCCOc1ccc(/C(O)=C2/C(=O)C(=O)N(CCN3CCOCC3)C2c2ccccc2)cc1 (centres undefined)	.	>26
COCCn1c(=O)cnc2cnc(N3CCN(C)CC3)nc21	i	.
CC(O)c1nc2ccccc2n1Cc1nnc(-c2ccc(Cl)cc2)o1 (centres undefined)	i	2.5*
CCOc1ccc2[nH]c(C)c(CN3CCOCC3)c(=O)c2c1	i	.
O=C(NC1CC1)C1CCN(c2ccc(S(=O)(=O)N3CCOCC3)cc2)CC1	i	>57
CCCCC(CC)CNC(=O)CCS(=O)(=O)c1cccc2nonc12 (centres undefined)	i	>57
O=C(NCc1nc2ccccc2[nH]1)[C@H]1C[C@@H]1[C@H](NP(=O)(c1ccccc1)c1ccccc1)c1ccccc1	i	.
CN(c1ccc(C(=O)Nc2nccs2)cc1)S(=O)(=O)c1ccccc1	i	>57
CSc1ccn(CCC(=O)O)c(=O)n1	i	>57
Cc1nn(-c2ccccc2)c2sc(C(=O)O)cc12	i	>11
CCC(CC)COC(=O)C(C#N)c1nc2ccccc2nc1N1CCN(CC)CC1 (centres undefined)	i	.
Cc1ccc(N(CN2C(=O)NC(C)(C)C2=O)CN2C(=O)NC(C)(C)C2=O)cc1	.	>26
CC(O)/C=C/c1ccc2ccccc2n1 (centres undefined)	i	.
CN1CCN(C(=O)CN(Cc2ccc(Cl)cc2)S(C)(=O)=O)CC1	i	>57
O=S(=O)(NC1CCCCCCC1)c1cccs1	i	>57
CC1(C)Cc2c(sc3c2c(=N)n(Cc2ccco2)c(=O)n3Cc2ccccc2)CO1	i	>57
Cc1cccc(NS(=O)(=O)c2ccc(Oc3ccccc3)cc2)n1	i	i
COC(=O)C1=C(N)OC2=C(C(=O)CC(C)(C)C2)C1c1cccs1 (centres undefined)	i	.
Cc1ccc(-c2nc3ccccc3[nH]2)s1	i	.
Cc1[nH]c(C)c(C(=O)O)c1CNC1CCCCC1C (centres undefined)	i	>57
CCOC(=O)C1CCCN(CCC(=O)Nc2cccc(F)c2)C1 (centres undefined)	i	>57
Cc1ccc(Cn2nnc3c(=O)[nH]c(C4CCN(S(=O)(=O)c5ccc(C)cc5)CC4)nc32)cc1	i	>57
Cc1cc(C)nc(SCC(=O)O)n1	i	>57
CCOC(=O)c1oc2cccc(O)c2c1CN(Cc1ccccc1)C(C)=O	i	.
c1ccc(Cn2nnc3c(N4CCOCC4)ncnc32)cc1	i	.
O=c1c2cnn(-c3ccccc3)c2ncn1Cc1cccnc1	i	>57
CCOc1cc2c3c(c1)C1(C(=O)N3C(C)(C)C=C2C)C(C#N)=C(N)Oc2cc(O)ccc21 (centres undefined)	i	>57
Cn1c(SCC(=O)N2CCCCCC2)nc2c([nH]c3ccccc32)c1=O	i	>57
Cc1nnc(SCC(=O)Nn2cnnc2)s1	i	>57
O=C(Nc1ccc(-c2cn3ccsc3n2)cc1)C1CC1	i	4.9*
CS(=O)(=O)N1CCC[C@@]2(CCN(c3ncccn3)C2)C1	i	.
Cc1cc(=O)[nH]c2ccccc12	i	>57
COc1ccc(Cl)cc1-n1c(C)cc(C(=O)O)c1C	i	>57
CCn1c(SCC(=O)N2CCc3ccccc32)nnc1-c1c[nH]c2ccccc12	i	>57
NC(=O)C1CCN(C(=O)CN2C(=O)c3ccccc3S2(=O)=O)CC1	i	>57
CCCCNC(=O)c1ccc2nc(-c3ccco3)c(-c3ccco3)nc2c1	?	.
c1cncc(CNC2CCCc3ccccc32)c1 (centres undefined)	i	>57
CCOc1ccc(CNC(=O)C2CCC(=O)N2C2CCCC2)cc1OC (centres undefined)	i	>57
O=C(Nc1ccc2ccccc2c1)[C@H]1C[C@@H]1[C@H](NP(=O)(c1ccccc1)c1ccccc1)c1ccccc1	i	.
Cc1ccc(NC(=O)N(Cc2ccc3c(c2)OCO3)Cc2cc3cc4c(cc3[nH]c2=O)OCCO4)cc1	i	>57
Cc1nn(C)c(C)c1S(=O)(=O)N1CCCC(C(=O)N2CCN(c3ccccc3)CC2)C1 (centres undefined)	i	.
CCN(CC)CCN1C(=O)c2cccc3cc(N)cc(c23)C1=O	i	.
CCOc1ccc2oc(-c3ccccc3)c(C(=O)O)c2c1	i	>57
CCc1nc2ccccc2c(=O)n1NC(=O)c1c(O)c2cccc3c2n(c1=O)CCC3	i	>57
CC1CC(C)CN(S(=O)(=O)c2cccc3cccnc23)C1 (centres undefined)	i	.
COc1ccccc1S(=O)(=O)Cc1ccc(C(=O)N2CCOCC2)o1	i	.
N#Cc1ccc(COC(=O)Cn2nnc(-c3ccccc3)n2)cc1	i	>57
O=C(O)CCC(=O)Nc1ccc(N2CCCCC2)c(C(=O)O)c1	i	>57
COc1ccccc1OCC(O)Cn1c(=N)n(CCN2CCCCC2)c2ccccc21 (centres undefined)	i	>57
COc1ccc(-c2noc(CN(C)S(=O)(=O)c3ccc(C)cc3)n2)cc1	i	>57
COc1ccc(Cl)cc1C(=O)n1nc(C)cc1C	i	.
CN1CCN(C(=O)c2cnn3c(C(F)F)cc(C4CC4)nc23)CC1	i	>57
Cc1ccc(C)c(OCCOCCN2CCOCC2)c1	i	.
CCN1/C(=C/C(C)=O)Sc2ccc(OC)cc21	i	>11
O=C(CSc1n[nH]c(-c2ccncc2)n1)NCCc1ccccc1	i	>57
C=CCNC(=O)c1ccccc1Cl	i	>57
CC(C)C(=O)NCCc1nc2ccccc2n1C	i	>57
COc1ccc(C(=O)N2c3cc4c(cc3C(C)=CC2(C)C)OCO4)cc1	i	>57
CC1CN(c2nc3ccccn3c(=O)c2/C=C(\C#N)S(=O)(=O)c2ccccc2)CC(C)O1 (centres undefined)	i	>57
Cc1csc(NC(=O)CNC(=O)OCc2ccccc2)n1	i	>57

Looked up by compound from the list above:
SMILES	YjeE inh	PK Bst
N#Cc1ccc(COC(=O)Cn2nnc(-c3ccccc3)n2)cc1	i	>57
COc1ccccc1OCC(O)Cn1c(=N)n(CCN2CCCCC2)c2ccccc21 (centres undefined)	i	>57
COc1ccc(C(=O)N2c3cc4c(cc3C(C)=CC2(C)C)OCO4)cc1	i	>57
C=CCNC(=O)c1ccccc1Cl	i	>57
O=C(CSc1n[nH]c(-c2ccncc2)n1)NCCc1ccccc1	i	>57
Cc1ccc(C)c(OCCOCCN2CCOCC2)c1	i	.
CC1CN(c2nc3ccccn3c(=O)c2/C=C(\C#N)S(=O)(=O)c2ccccc2)CC(C)O1 (centres undefined)	i	>57

More entries:
SMILES	YjeE inh	PK Bst
O=C(COc1ncnc2sccc12)Nc1ccc2c(c1)OCCO2	i	>57
COc1ccc(C(=O)/C=C/Nc2cccc(C)n2)cc1OC	.	0.63*
COc1ccc(CNC(=O)c2cnc3n(c2=O)CCS3)cc1	i	.
CCCCC(CC)C(=O)Nc1ccccc1C#N (centres undefined)	i	>57
Cc1ccccc1NC(=O)c1cc(S(=O)(=O)N2CCOCC2)cs1	i	>57
CC(=O)c1cccc(NC(=O)N2CCc3ccccc3C2)c1	i	>57
CC(=O)Nc1ccccc1O	.	>26
COc1ccc(CC(NC(C)=O)C(=O)NC2CCN(C(=O)Nc3ccc(C#N)cc3)CC2)cc1OC (centres undefined)	i	.
CCN1CCN(CCCNC(=O)c2cn(CCOC)c(=O)c3c2c2ccccc2n3C)CC1	i	>57
CCN(CC)CCN1C(=O)C(O)=C(C(=O)c2cccs2)C1c1ccc(C)o1 (centres undefined)	i	>57
COc1ccccc1OCCCn1c(C)c(C#N)c2ccccc21	i	?
Cc1ccc(-n2ncc(C(=O)O)c2C2CCN(C(=O)OC(C)(C)C)CC2)cc1	i	>57
CC(=O)OCC(COC(C)=O)OC(C)=O	i	.
CC(C)OC(=O)Cn1c(=O)sc2ccccc21	i	>57
N#Cc1ccsc1NC(=O)COC(=O)CCCSc1nc2ccccc2s1	i	>57
CCc1ccccc1NC(=O)c1nnn(CC(=O)Nc2ccccc2C)c1N	i	>57
COc1ccccc1CC(=O)NC1CC(C)(C)NC(C)(C)C1	i	>57
Cc1cc2ccccc2n1CCNC(=O)c1ccccc1	i	>57
CC(=O)C1=C(C)NC(SCC(=O)c2ccc(Cl)cc2)=C(C#N)C1c1ccco1 (centres undefined)	i	.
CCOC(=O)c1cnc(SCC(=O)N2CCN(c3ccccc3)CC2)nc1N	i	>57
CC(NC(=O)COc1ccc(Br)cc1)C(=O)O (centres undefined)	i	.
Cc1ccc(S(=O)(=O)NCC(=O)OCC(=O)c2cccs2)cc1	i	>57
COc1ccc(OC)c(NC(=O)CCC(=O)Nc2nnc(C(F)(F)F)s2)c1	i	>57
COc1ccc2[nH]c(=O)c(CN(C(=O)c3ccncc3)C(C)C)cc2c1	i	>57
CCOC(=O)N1CCN(C(=O)COc2cc(=O)n(C)c3ccccc23)CC1	i	>57
CCOc1ccc(CN(C(=O)c2ccco2)C2CCS(=O)(=O)C2)cc1 (centres undefined)	i	>57
Cc1ccc(OCC(O)CN2CCN(c3ccccc3)CC2)cc1 (centres undefined)	i	.
CC(=O)Nc1nonc1-c1nc2ccccc2n1N(C(C)=O)C(C)=O	i	.
Nc1ccc(N=Nc2c(S(=O)(=O)O)cc3ccccc3c2S(=O)(=O)O)cc1	i	.
CCn1cc(CNC(=O)CCc2ccc(OC)cc2)cn1	i	>57
Cn1c(CSCc2ccccc2Cl)nnc1SCC(=O)Nc1nccs1	i	>57
NC(=O)c1c(NC(=O)Cc2cccs2)sc2c1CCC2	i	>57
Cc1ccc(Cl)cc1NS(=O)(=O)c1c(C)[nH]c(=O)[nH]c1=O	i	>57
COc1ccc(NC(=O)CCn2nc(C)cc2C)cc1	i	>57
CCCCc1c(C)c2ccc(OC)c(/C(C)=N\O)c2oc1=O	i	>57
Cc1ccc(C)c2[nH]c(=O)c(CCNC(=O)C(C)C)cc12	i	.
Cc1nc(C)c(C(=O)C2=C(O)C(=O)N(CCCn3ccnc3)C2c2ccccc2)s1 (centres undefined)	i	>57
COc1nc(NCCN2CCOCC2)nc(Nc2ccccc2)n1	i	>11
COc1ncc2nc(-c3cccc(C#N)c3)c(=O)n(CCC#N)c2n1	i	.
COc1ccc(C(c2nnnn2C2CCCC2)N2CCN(C3CCCC3)CC2)cc1OC (centres undefined)	i	>57
COc1ccc2nc(NC3=NCCC3)sc2c1	i	i
Cc1ccc(NC(=O)CSc2nc3c(c(=O)[nH]2)CCC3)cc1C	i	>57
CCCn1c(SCC(=O)Nc2cccc(C)n2)nnc1-c1ccco1	i	>57
CNc1ccnc(-c2cccc(NS(C)(=O)=O)c2)n1	i	.
CCCN(Cc1cc2ccc(C)cc2[nH]c1=O)C(=O)c1ccccn1	i	>57
Nc1nonc1-c1noc(-c2ccccc2Br)n1	i	>57
O=C(CN1CCN(c2ccccc2F)CC1)Nc1ccccc1F	i	>57
[N-]=[N+]=CC(=O)CCCN1C(=O)c2ccccc2C1=O	i	>57
O=C(c1ccccc1)c1nc[nH]c1C(=O)Nc1ccccn1	i	.
CC(=O)Oc1ccc2cc(-c3nc4ccccc4n3C)c(=O)oc2c1	i	.
Oc1ccccc1C(=S)N1CCCCCC1	i	>57
CC(C)Cc1nc(N2CCOCC2)c(C#N)c2c1COC(C)(C)C2	.	>26
O=C(Nc1ccccc1-c1nnn(CC(=O)N2CCN(c3ccccc3)CC2)n1)c1cccs1	i	>57
O=C(O)CN1C(=O)C2C3C=CC(C3)C2C1=O (centres undefined)	i	.
CCCN1C(=O)C(O)(C2CC(=O)CC(C)(C)O2)c2ccccc21 (centres undefined)	i	>57
O=C(CNCC1CCCO1)N1CCCc2ccccc21 (centres undefined)	i	>57
CCOC(=O)c1cccc(NC(=O)CSc2nc3cccnc3n2C)c1	i	>57
COc1ccc(CNC(=O)C2CC(c3cccc(OC)c3)=NO2)cc1 (centres undefined)	i	>57
O=C(CSc1nnc(-c2ccccc2F)o1)OCc1ccccc1	i	>57
Cc1ccc(Nc2cccccc2=O)cc1	i	i

Continued.
SMILES	YjeE inh	PK Bst
O=C(Nc1cccc2cccc(NC(=O)c3ccco3)c12)c1ccco1	i	>57
COc1ccc(OC)c2c1CC(C)(C)NC2=O	i	.
O=C(COC(=O)c1cc(S(=O)(=O)N2CCOCC2)ccc1Cl)Nc1ccc2c(c1)OCO2	i	>57
O=C(COc1nsnc1N1CCOCC1)N1CCOCC1	i	>57
CCC(=O)Nc1nnc(SCC(=O)Nc2ccc(F)cc2)s1	i	>57
O=C(Nc1nccs1)c1ccc(COc2ccc(F)cc2)o1	i	>57
N#CCc1nc2n(n1)Cc1ccccc1-2	i	>57
CN1CCN(c2ncc3nc(-c4ccccc4)c(=O)n(CCc4ccccc4)c3n2)CC1	i	.
CCOC(=O)CSc1nc(N)c(C(=O)Nc2ccc(N(C)C)cc2)s1	.	i
Cc1n[nH]c(C)c1S(=O)(=O)NCCc1ccc(Cl)cc1	i	>57
Cc1oc(-c2ccccc2)cc1C(N)=O	i	.
CCCCc1[nH]c(=O)c(C#N)c2c1CSC(C)(C)C2	.	>26
COc1ccc(N(CC(=O)NCc2cccc(OC)c2)S(=O)(=O)c2c(C)noc2C)cc1	i	>57
